CapD inh: inhibitors of Bacillus anthracis CapD enzyme. purified CapD enzyme, fluorescence intensity read-out; active compounds read low; some hits fall short of the stated cut. z-score (test concentration not listed). 140,000 tested, 0.23% active. AID 492967;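 active = z-score under -4 in either of two replicates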;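 note: stock transfer was 100 nL into about 40 µL; score is relative to mean and spread of the plate; one replicate is shown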
AID504770: growth inhibitors of E. coli YBA685 in a screen for V. cholerae RctB (chromosome II replication) inhibitors; E. coli YBA685 rctB-dependent plasmid, OD600 growth, 3 h; active compounds read low; z-score (concentration not given with the values); 130,000 tested, 0.27% active; AID 504770;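 active = z-score under -2 on both plates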;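 note: wells of about 30 µL received 100 nL stock; score is relative to mean and SD of the test wells; the first replicate is given; strong numbers were not always called active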
* marks the source's active call; other numbers are inactive results; i = inactive; . = no result given.

SMILES,CapD inh,AID504770
COc1ccc(N2CCN(C(=O)CN(c3cccc(C(F)(F)F)c3)S(C)(=O)=O)CC2)cc1,.,0.15
O=C1NC(=Nc2ccc(O)cc2)S/C1=C\c1ccc(C(=O)O)cc1,-0.87,-0.6
COC(=O)CCn1ccnc1C,.,0.05
S=C(c1ccc(-c2ccc(Cl)cc2)o1)N1CCOCC1,-1.69,-1.3
COc1cc(C2C(C#N)=C(N)Oc3n[nH]c(-c4ccc(C)cc4)c32)cc(OC)c1OC(=O)N1CCOCC1 (stereo not drawn),-0.22,.
Oc1c(/C=N/N2CCOCC2)cc2c3c1CCCN3CCC2,.,-0.05
CN(C)C1=NC(C(F)(F)F)(C(F)(F)F)N=C(c2ccccc2)O1,-0.12,0.65
COc1cccc(Oc2c(C(F)(F)F)oc3cc(OC)ccc3c2=O)c1,-0.18,0.55
O=C(Nc1ccccc1C(F)(F)F)c1cc(S(=O)(=O)N2CCN(c3ccccc3)CC2)ccc1F,-0.32,.
OC1Cc2cccc3cccc1c23 (stereo not drawn),0.12,0.2
O=C1C(=Cc2ccc3c(c2)OCO3)C(=O)c2ccccc21,.,-0.15
O=C(NCc1cccs1)c1cc(-c2cccs2)on1,4.86,-1.95
CCCCOc1ccc(C(=O)CCC(=O)O)cc1,-1.53,.
FC(F)Oc1cc(C(F)(F)F)cc(C(F)(F)F)c1,.,-0.95
O=C(NCCCn1ccnc1)c1nn2c(C(F)(F)F)cc(-c3ccccc3)nc2c1Br,0.24,.
CCc1c(C)nc2n(c1=O)C(CS(=O)(=O)c1ccc(C)cc1)CS2 (stereo not drawn),-0.45,-1.05
Cc1cc(OCc2cc(F)cc(F)c2)ccc1[N+](=O)[O-],0.075,.
Cc1ccc2nc(N3CC(=O)N(CCc4ccccc4)C(=O)C3)c3nncn3c2c1,-0.125,0
CCOC(=O)c1cccc(-c2ccc(/C=C3\C(=O)N(c4ccc(S(N)(=O)=O)cc4)N=C3C(F)(F)F)o2)c1,0.095,.
O=C(Oc1c(CN2CCOCC2)cc(Cl)c2cccnc12)c1ccccc1Cl,10.2,-0.85
c1ccc(N2CCN(c3nc4ccccc4n4cnnc34)CC2)cc1,-1.61,-0.7
COCCN(C(=O)C(c1ccccc1)c1ccccc1)C1CCN(C)CC1,-0.255,.
O=C1OC(c2cc([N+](=O)[O-])ccc2Cl)=N/C1=C/c1cc(Br)cs1,0.385,.
COc1ccc(NC2=CC(=O)C=CC2=O)cc1,0.86,0.55
CCOC(=O)CSc1nc2ccccc2c(=O)n1Cc1ccco1,.,-0.4
COc1ccccc1C(CCNCc1ccccc1)c1ccco1 (stereo not drawn),4.85,-1
CCOC(=O)c1ccc2nc(NC(=O)CSC3=NC(=O)C(CC)C(=O)N3)sc2c1 (stereo not drawn),0.32,-0.3
CCN(CC(=O)Nc1ccc2c(c1)OCCO2)CC(=O)c1c(C)[nH]c2ccccc12,.,-0.5
O=C(/C=C/c1ccc(F)cc1)N(CCO)Cc1ccccc1,-0.315,-0.6
COc1ccc(C2CC(c3ccccc3)=NN2S(=O)(=O)c2ccccc2)c(OC)c1 (stereo not drawn),-0.785,.
CC1(C)CC(CCc2nc(=S)[nH][nH]2)C(=O)O1 (stereo not drawn),-0.07,0
O=S(=O)(/C=C/c1ccccc1)N1CCN(c2cccc(Cl)c2)CC1,-0.875,1.65
Cc1ccc(S(=O)(=O)c2cnc(-c3ccncc3)nc2-c2cccnc2)cc1,-1.03,.
CCOc1ccc(CNCc2cn[nH]c2-c2ccccc2)cc1,-0.105,-0.6
C=CCOc1cc(C)nc(-c2ccccc2O)n1,-0.17,-0.7
Nc1nc(Nc2ccc(Cl)cc2)n[nH]1,-0.03,-0.55
Cc1ccoc1CC[N+](C)(C)C,0.265,-0.6
Cc1cccc(N2CCN(CCNC(=O)c3c(C)nn(-c4ccc(F)cc4)c3-n3cccc3)CC2)c1C,-0.18,1
CC1CN(C(=O)COC(=O)/C=C/c2ccccc2)CC(C)O1 (stereo not drawn),-0.155,-0.55
CCCN(C(=O)COc1ccccc1F)c1c(N)n(Cc2ccccc2)c(=O)[nH]c1=O,.,0.95
CC(NS(=O)(=O)c1ccc(Cl)cc1)C(=O)Nc1ccc2ccccc2c1 (stereo not drawn),-0.445,.
Cn1c2c(c(=O)n(C)c1=O)C(c1cccc(I)c1)C1C(=O)c3ccccc3C1=N2 (stereo not drawn),-0.7,.
Cc1ccc(C(=O)CC(C(=O)O)n2cccn2)cc1 (stereo not drawn),0.555,0.25
Cc1ccc(C(=O)Nc2cc(C(C)(C)C)nn2C)cc1,.,0.3
Cc1cc(C2=Nc3ccccc3SC(c3c(Cl)cccc3Cl)C2)ccc1Cl (stereo not drawn),-0.01,.
O=C(c1ccc2c(c1)N(Cc1ccc(F)cc1)CCS2)N1CCCCC1,80.8,-0.05
NS(=O)(=O)c1ccc(Nc2nc3nonc3nc2Nc2ccc(S(N)(=O)=O)cc2)cc1,.,1.4
O=C(CN1CC(=O)Oc2ccccc21)OCC(=O)c1ccccc1,-0.4,-0.05
O=C1NC2(CCCCC2)NC2=C1CCCC2,0.025,.
CC(C)(C)c1ccc(Oc2c(C(F)(F)F)oc3cc(OCC(=O)O)ccc3c2=O)cc1,0.48,.
O=C1/C(=C/c2c(F)cccc2Cl)N2CCC1CC2,-0.275,1
N#CC(C#N)=C1CSc2sc(=S)sc2SC1,-0.685,.
CCOC(=O)c1cc2cccc(NC(=O)C(C)(C)C)c2[nH]1,25.9,.
CC1Cc2ccccc2N1C(=O)COC(=O)c1ccccc1 (stereo not drawn),-0.275,-1.6
Cc1ccc2oc(-c3cc(NC(=O)c4cccc5c(Br)cccc45)ccc3Cl)nc2c1,0.055,.
CCOc1ccc(CN(C)CC(=O)NC2(C#N)CCCC2)cc1,.,-0.55
Cc1ccc(NC(=O)CC2Sc3ccccc3NC2=O)cc1 (stereo not drawn),0.57,1
COCCNC(=O)c1ccccc1CSc1nc2ccccc2o1,.,-0.05
Cc1nnc(Nc2cccc(Cl)c2C)s1,0.07,-0.65
COC(=O)c1c(C)oc2ccc(OCC#N)cc12,1.11,-0.9

(more compounds)
SMILES,CapD inh,AID504770
Cc1ccc(CS/C(Nc2ccccc2C)=C(\C#N)C(=O)NCc2ccco2)c(C)c1,-0.08,.
CCOC(=O)c1c(N(C)C)ccc(C2C=CNC(=O)N2)c1C (stereo not drawn),0.445,-0.35
N#CCc1nc(-c2ccccc2)no1,.,-0.4
Cc1ccc(-n2c(C)cc(C(=O)CC#N)c2C)cc1C,.,0.4
COc1ccc(C2=NN(C(=O)CCC(=O)O)C(c3ccccc3F)C2)cc1OC (stereo not drawn),.,-0.75
COCc1cc(C)nc2sc(C(=O)c3ccccc3)c(N)c12,-0.26,.
CCOC(=O)c1c(C)[nH]c(C(=O)NCC(c2ccco2)N2CCCCC2)c1C (stereo not drawn),.,-0.95
CCC1CN=C(Nc2cccc(C)c2)S1 (stereo not drawn),0.265,-1.1
NC(=O)COc1ccc2ccc(=O)oc2c1,57.3,-0.05
O=S(=O)(c1ccc(Br)cc1)N1CCn2c(nc3ccccc32)C1,-0.535,-0.25
Cc1ccc(OC(C)(C)C(=O)O)c2c1CCC2,0.31,.
Cc1ccc(C2C3=C(CC(c4ccco4)CC3=O)Nc3ccccc3N2C(=O)c2ccccc2)cc1 (stereo not drawn),0.025,.
CCC(Sc1nc2ncccc2[nH]1)C(=O)N(CC)c1cccc(C)c1 (stereo not drawn),-0.44,-0.5
O=C(NCc1ccco1)C1CCN(S(=O)(=O)Cc2ccccc2)CC1,.,0.8
O=C(/C=C/CC(=O)OC1CCCC1)OC1CCCC1,.,-0.85
CCOC(=O)N1CCN(C(=O)c2cc(Nc3ccc(OC)cc3OC)nc3ccccc23)CC1,0.275,-0.35
COc1ccc(N=Cc2sc3ccccc3c2Cl)cc1,-0.485,1.5
CC(C)NC(=O)CC1Sc2ccccc2NC1=O (stereo not drawn),.,1.4
C=CCSc1nnc(NC(=O)c2oc3ccccc3c2C)s1,.,-0.15
N#Cc1c[nH]c2ccc(N3C(=O)c4ccccc4C3=O)cc12,0.695,-0.1
O=C(COc1ccccc1)Nc1ccc(S(=O)(=O)Nc2ncccn2)cc1,0.03,-0.1
Cc1nnsc1C(=O)Oc1cccnc1,0.145,-0.15
CC(=O)N1CCC(N(C(=O)CCC(=O)NCC2CCCO2)C2CC2)CC1 (stereo not drawn),-0.105,.
Cc1cc(C)c(N(CC(O)Cn2cc(/C=N/O)c3ccccc32)S(C)(=O)=O)c(C)c1 (stereo not drawn),.,-0.45
CCOC(=O)c1cn(C(=O)c2ccco2)nc1C(F)(F)F,0.775,0.25
CCOc1ccc(N2C(=O)NC(=O)/C(=C\c3cc(OC)c(OC)c(OC)c3)C2=O)cc1,0.955,.
CN(C(=O)COC(=O)Cn1nnc(-c2ccccc2)n1)C1CCCCC1,.,2
c1ccc(NC2CCCCC2)cc1,0.445,0.15
O=C(CN1C(=O)c2ccccc2C1=O)c1ccc(C(F)(F)F)cc1,0.275,-0.1
COCCCn1c(=O)[nH]c(=O)c2c(N)c(C(=O)c3ccccc3)sc21,.,0.2
CCn1cc(-c2cc(C(=O)O)on2)cn1,.,-0.05
CCOc1ncccc1C(=O)N(C)CC1COc2ccccc2O1 (stereo not drawn),.,-1.8
CC(C)C(SCc1ccccc1)C(=O)NC(N)=O (stereo not drawn),.,0.35
Nc1c(C(=O)NCCc2ccccc2)sc(=S)n1-c1cccc(C(F)(F)F)c1,-0.805,.
COC(=O)C1C2c3ccccc3O[C@]1(C)N=c1s/c(=C/c3ccc(F)cc3)c(=O)n12 (stereo partly drawn),-0.2,.
O=C(c1cccc(F)c1)N1CC=C(c2ccccc2)CC1,1.52,-0.3
CN1CCN(S(=O)(=O)c2ccc3c(c2)OCCO3)CC1,i,0.1
Cc1[nH]c2c(NC(=O)Nc3ccc(F)cc3F)cccc2c1C,-0.55,.
CC(C)=NNC(=S)Nc1ccc(Cl)cc1,-0.64,-0.4
CS(=O)(=O)Oc1ccc(Cc2ncc(C(F)(F)F)cc2Cl)cc1,-0.205,.
CCCCn1cnc2cc(NCc3ccc(C)cc3)ccc21,-0.255,-0.1
COc1ccc(-n2c(SCC(=O)N(C)Cc3cccs3)nc3ccccc32)cc1,.,0.1
CN(C)c1nc(N(C)C)nc(N2CC(=O)N(c3ccccc3)C2=N)n1,-0.07,.
Cc1ccc2[nH]c(=O)c3cc(C(=O)NC(C)C)sc3c2c1,-0.45,.
CCNC(=O)CC1Nc2cc(C)c(C)cc2NC1=O (stereo not drawn),5.68,-0.5
CSc1cccc(NC(=O)CCS(=O)(=O)c2ccc3nc(C)sc3c2)c1,-0.82,-0.45
CC(=O)Oc1ccc(C2C(C(=O)OCCOc3ccccc3)=C(C)NC3=C2C(=O)CC(c2ccccc2)C3)cc1 (stereo not drawn),30.1,.
CC(=O)Nc1nc2c(c3c1c(=O)oc1ccccc13)CCCC2,-0.49,.
COCCn1c(SCc2nc3ccccc3nc2C)nc2ccccc21,.,-0.55
COc1ccc(C(=O)C[n+]2ccc3c(c2)nnn3C)cc1,-0.025,0.15
Cc1cccc(N=CC23c4ccccc4C(c4ccccc42)C2C(=O)N(c4ccc(Br)cc4)C(=O)C23)c1 (stereo not drawn),-0.05,.
CCCC1CCC(c2ccc(/C(N)=N/O)cc2)CC1 (stereo not drawn),-0.08,-0.1
CCOC(=O)C1=C(C)NC(=O)NC1c1c(O)ccc2ccccc12 (stereo not drawn),.,0.95
CN1OC(CC(=O)NCc2ccc(F)cc2)N(c2ccc(Cl)cc2)C1=O (stereo not drawn),-0.245,.
CCOC(=O)N1CCC(NC(=O)CN2C(=O)COc3ccc(C(C)(C)C)cc32)CC1,0.385,-0.95
C[N+](C)(C)CC(=O)[O-],0.77,1.85
